# High-throughput results: PubChem, several laboratories
# Arbovirus anti = antivirals against arbovirus infection, primary screen, cell-based, full library, 10K replicate subset | arbovirus infection cell-based antiviral screen | inhibition, % at 10 µM | hit rate 0.37% among 200,000;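 active = inhibition from about 30%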;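 note: bluetongue infection of BSR cells; cell survival read as ATP light after 72 h; 0% = infected wells without compound and 100% = uninfected wells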
# Mtb bLac sens = beta-lactam sensitization of Mtb H37Rv, H37Rv | M. tuberculosis H37Rv growth with meropenem, percent inhibition; hits of this screen are not shown here | inhibition, % at 25 µM | hit rate 0.27% among 330,000;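 active = about 74% or more and at least 40 points above the plate without the antibiotic, then above 30% in a dose series; inconclusive = first-round hits that could not be retested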;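 note: growth measured after seven days incubation then overnight dye step; 0% = bacteria only wells and 100% = bacteria with antibiotic; twin plates without the antibiotic show which effects depend on it; some results filed as inactive read as strong as hits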
# RecA intein inh = Mtb RecA intein splicing inhibitors, primary screen, biochemical, fluorescence, HTS. inhibition, %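 (about 9 µM by stock and volumes)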. Protein RecA (Mycobacterium tuberculosis (strain ATCC 25618 / H37Rv)), P9WHJ3. cell-free RecA intein splicing. hit rate 0.75% among 290,000; in the data active = inhibition above about 30%; inconclusive = no clear call, values can overlap the other calls;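 note: 0% = vehicle wells and 100% = reference inhibitor control wells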
# Target sequence (P9WHJ3 whole entry, looked up): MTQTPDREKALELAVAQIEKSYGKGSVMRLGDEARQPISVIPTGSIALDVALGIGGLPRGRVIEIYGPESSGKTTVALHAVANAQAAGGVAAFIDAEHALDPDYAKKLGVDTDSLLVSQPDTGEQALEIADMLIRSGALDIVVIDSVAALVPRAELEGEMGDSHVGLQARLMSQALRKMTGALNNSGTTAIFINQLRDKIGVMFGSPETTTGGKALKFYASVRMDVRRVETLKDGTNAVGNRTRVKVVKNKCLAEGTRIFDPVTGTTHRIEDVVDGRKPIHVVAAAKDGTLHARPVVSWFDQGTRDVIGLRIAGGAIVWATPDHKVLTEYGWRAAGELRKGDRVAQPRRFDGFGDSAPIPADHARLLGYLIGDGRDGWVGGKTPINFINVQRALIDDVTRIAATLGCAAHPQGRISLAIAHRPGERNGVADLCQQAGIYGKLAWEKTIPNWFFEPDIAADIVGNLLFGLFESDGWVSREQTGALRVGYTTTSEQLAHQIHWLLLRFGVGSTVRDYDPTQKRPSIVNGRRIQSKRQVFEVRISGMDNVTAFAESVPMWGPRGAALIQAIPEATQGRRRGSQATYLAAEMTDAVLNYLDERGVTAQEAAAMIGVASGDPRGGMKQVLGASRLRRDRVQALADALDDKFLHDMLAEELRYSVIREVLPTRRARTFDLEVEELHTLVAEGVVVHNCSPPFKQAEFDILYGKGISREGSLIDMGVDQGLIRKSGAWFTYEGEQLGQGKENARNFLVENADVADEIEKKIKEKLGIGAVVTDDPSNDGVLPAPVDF
# YopH inh = YopH tyrosine phosphatase inhibitors, primary screen, biochemical, fluorescence Ex485/Em525; YopH tyrosine phosphatase [Yersinia enterocolitica]; inhibition, %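 (about 10 µM by stock and volumes)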; hit rate 0.16% among 140,000; AID 898, 2007;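 active = inhibition of 50% or more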;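 note: controls were vehicle for no effect and minimum signal wells for full effect; inactives centre near -20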
# Mtb H37Rv = M. tuberculosis H37Rv growth inhibitors, H37Rv strain (AID 1626); M. tuberculosis H37Rv growth inhibition; higher % means a stronger effect; one-dose inhibition, % at 10 µM; IC50 in µM for titrated hits; hit rate 0.95% among 220,000;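 active = confirmed in a dose series; inconclusive = inhibition above 80% but not taken into the dose series; inactive = below 80% or under 30% at every dose of the series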;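 note: bacteria incubated seven days before Alamar blue readout; 0% = bacteria only wells and 100% = bacteria with antibiotic wells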
# Arbovirus anti repeat = also measured in Arbovirus anti; calls as there; inhibition, %; measured here: 10K subset replicate screen; many hits read low in the repeat;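 first of two repeat runs on a subset; 0% = infected and 100% = uninfected wells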
# * marks the source's active call; other numbers are inactive results; ? = inconclusive; nt = no result given; & = joins results of further samples.
SMILES,Arbovirus anti,Mtb bLac sens,RecA intein inh,YopH inh,Mtb H37Rv,others
O=C(CCN1CCOCC1)N/N=C/c1cc([N+](=O)[O-])ccc1OC(F)F,-6,1,-1.1,nt,2%,
COc1ccc([N+](=O)[O-])cc1NC(=O)c1ccc(N(Cc2ccccc2Cl)S(C)(=O)=O)cc1,-5,-2,1.3,19,17%,
Cc1nn(Cc2ccccc2)c(C)c1NS(=O)(=O)c1ccccc1,nt,-4,1.2,nt,nt,
CC1(C)CC2(CC(c3ccccc3)Oc3cc(O)ccc32)NC(=O)N1 (stereo not drawn),-5,-6,0.6,nt,-1%,
COc1cc(-c2nc(N)n[nH]2)cc(OC)c1OC,10,0,-6.0,-42,-4%,
COc1ccc(CCNc2ccc(C(CC(N)=O)NC(=O)c3ccc(Br)cc3)cc2[N+](=O)[O-])cc1 (stereo not drawn),nt,46,0.5,nt,3%,
CCOc1ccc(-c2cccc(NC(=O)c3ccc(Br)o3)c2)nn1,nt,21,3.8,nt,nt,
O=C(CSc1ccccc1)Nc1ccc2c(c1)OCO2,nt,35,2.6,nt,nt,
CNC(=S)N1CCC(c2nc3ccccc3s2)CC1,3,-5,1.1,nt,-8%,
CN1CCN(c2nc3c(c(=O)n(C)c(=O)n3C)n2CCSc2nnnn2-c2ccccc2)CC1,nt,4,-1.5,nt,-2%,
CC1(C)CC(=O)C(C(c2cc([N+](=O)[O-])ccc2Cl)C2C(=O)CC(C)(C)CC2=O)C(=O)C1,nt,6,-1.5,nt,nt,
COc1ccc(C)cc1NC(=O)c1ccc([N+](=O)[O-])cc1[N+](=O)[O-],-1,5,-4.7,nt,-1%,
Nc1ncc(Br)cc1S(=O)(=O)NCCc1ccccc1,nt,-1,3.5,nt,nt,
COc1ccc(C(CC(=O)Nc2ncccc2C)N2Cc3ccccc3C2=O)cc1 (stereo not drawn),nt,-13,-0.2,nt,nt,
Cc1cc(S(=O)(=O)Nc2cccc(Cl)c2)c(C)s1,-1,4,5.4,nt,8%,
CN(C)S(=O)(=O)c1cccc(NC(=O)COC(=O)/C=C/c2ccc([N+](=O)[O-])cc2)c1,2,-7,0.8,nt,0%,
CCOc1ccc2nc(N(CCCN(C)C)C(=O)c3ccc(S(=O)(=O)N4CCc5ccccc5C4)cc3)sc2c1,nt,25,0.0,nt,nt,
Cc1ccc(CN2CCNC(=O)C2CC(=O)N2CCN(c3ncccn3)CC2)o1 (stereo not drawn),3,-7,4.7,nt,2%,
O=[N+]([O-])C(=C1Nc2ccccc2N1)/C(Cl)=C(/Cl)Br,-4,5,3.2,-25,-2%,
CCCN(CCC)CCCNC(=O)Cn1cnc2sc(C)c(S(=O)(=O)N3CCCCC3)c2c1=O,nt,-7,1.7,nt,nt,
CCC(=O)Nc1cccc(C(=O)Nc2nccs2)c1,-5,0,-0.9,nt,3%,
CC(C)(C)c1ccc(/C=N/Nc2cccc(C(=O)O)c2)cc1,4,-2,-1.4,nt,9%,
Cc1ccc2nc(C)cc(Cl)c2c1,9,-7,0.8,nt,4%,
CCOc1cc2c(cc1OCC)-n1cccc1C(c1cccc([N+](=O)[O-])c1)NC2 (stereo not drawn),nt,7,-2.0,nt,nt,
CCC(c1nnnn1CCOC)N1CCN(C(=O)c2ccco2)CC1 (stereo not drawn),13,2,0.0,-2,-7%,

# Structures above with an aryl thioether with sulfur outside any ring, in the order listed:
SMILES,Arbovirus anti,Mtb bLac sens,RecA intein inh,YopH inh,Mtb H37Rv,others
O=C(CSc1ccccc1)Nc1ccc2c(c1)OCO2,nt,35,2.6,nt,nt,
CN1CCN(c2nc3c(c(=O)n(C)c(=O)n3C)n2CCSc2nnnn2-c2ccccc2)CC1,nt,4,-1.5,nt,-2%,

# Next entries.
SMILES,Arbovirus anti,Mtb bLac sens,RecA intein inh,YopH inh,Mtb H37Rv,others
COc1ccc(-c2nnc(SCCC(=O)O)n2-c2ccccc2)cc1,2,-8,1.3,-22,-1%,
COc1ccc(-c2noc(-c3ccccc3-c3ccccc3)n2)cc1OC,31*,0,0.1,19,nt,
O=C(Nc1cccn2ncnc12)c1ccc(Cl)cc1Cl,0,7,-1.6,-9,-1%,
O=C(OCC(=O)N1CCCC1)c1ccc(S(=O)(=O)N2CCOCC2)cc1,2,-9,0.5,nt,3%,
O=C(CSc1nc2ccccc2s1)Nc1ccc(Cl)c(S(=O)(=O)N2CCOCC2)c1,16,98,9.0,-26,?,
COc1ccc(N2CCN(C(=O)CC3NC4CCCCC4NC3=O)CC2)cc1 (stereo not drawn),-2,-4,-3.9,-20,-11%,
CCN1CCN(c2nc3c(c(=O)[nH]2)CCCC3)CC1,0,0,0.4,-32,-6%,
COc1ccccc1-n1cc(CN2CCN(C3CCCCC3)C(CCO)C2)cn1 (stereo not drawn),2,63,-0.1,nt,2%,
COC(=O)c1ccccc1NC(=O)CN(Cc1ccc(Cl)cc1)S(C)(=O)=O,5,5,-0.2,-2,-8%,
CCSc1nnc(NC(=O)C(CC)Oc2ccccc2)s1 (stereo not drawn),7,-6,4.0,-55,-5%,
Cc1cc(C(=O)N/N=C/c2cc(Cl)cc([N+](=O)[O-])c2O)c2ccccc2n1,-6,13,16,-16,15%,
Cc1ccc(-n2ncc3c(N4CCCC4)ncnc32)c(C)c1,0,-2,0.4,-45,-6%,
COc1ccc(-n2c(SC3CCOC3=O)nc3ccccc32)cc1 (stereo not drawn),5,-4,7.3,-44,-4%,
CC(C)[C@H](NC(=O)c1ccccc1Cl)C(=O)OCc1cc(=O)n2cc(Br)ccc2n1,5,-1,3.5,nt,5%,
COc1ccc(CCNC(=O)CN(C)S(=O)(=O)c2cccc3nsnc23)cc1OC,13,-7,-0.8,-30,-4%,
Cc1ccc(NC(=S)C2=C(O)c3sccc3N(C)S2(=O)=O)cc1,18,2,-0.4,-46,-8%,
Cc1ccc(S(=O)(=O)CCC(=O)OCC(=O)Nc2cc(F)ccc2C)cc1,nt,-5,-3.7,nt,nt,
Cc1cc(OCC(=O)NNC(=O)c2cccnc2)cc(C)c1Cl,nt,-1,-1.9,nt,nt,
CCCNC(=O)c1ccc(Cn2cc(-c3ccc(OC)cc3)nc2C(C)N)cc1 (stereo not drawn),nt,-1,2.7,nt,nt,
C=CCN(CC=C)C(=O)Cn1cnc([N+](=O)[O-])n1,-3,10,1.2,-26,4%,
CCOC(=O)c1cc(-c2ccccc2)nn1Cc1cc(CC)no1,nt,2,5.3,nt,nt,
COC(=O)C1=C(C)N=C2SCCC(=O)N2C1/C=C/c1ccccc1 (stereo not drawn),-2,-14,-4.0,-55,-4%,
O=C(Nc1cccc(-n2cnnn2)c1)c1cc(Cl)nc(Cl)c1,nt,5,-1.4,nt,nt,
Cc1ccc(Cn2c(/C=C/c3ccco3)nc3ccccc32)cc1,8,13,16,-14,0%,
Cc1ccc(-n2[nH]c(C)c(/C=N/N3C(=O)c4cccc5cccc(c45)C3=O)c2=O)cc1,-11,88,3.1,nt,-4%,

# A draw from above in order of number of heavy atoms, falling.
SMILES,Arbovirus anti,Mtb bLac sens,RecA intein inh,YopH inh,Mtb H37Rv,others
CCOc1ccc2nc(N(CCCN(C)C)C(=O)c3ccc(S(=O)(=O)N4CCc5ccccc5C4)cc3)sc2c1,nt,25,0.0,nt,nt,
COc1ccc(CCNc2ccc(C(CC(N)=O)NC(=O)c3ccc(Br)cc3)cc2[N+](=O)[O-])cc1 (stereo not drawn),nt,46,0.5,nt,3%,
CN1CCN(c2nc3c(c(=O)n(C)c(=O)n3C)n2CCSc2nnnn2-c2ccccc2)CC1,nt,4,-1.5,nt,-2%,
COc1ccc([N+](=O)[O-])cc1NC(=O)c1ccc(N(Cc2ccccc2Cl)S(C)(=O)=O)cc1,-5,-2,1.3,19,17%,
CC1(C)CC(=O)C(C(c2cc([N+](=O)[O-])ccc2Cl)C2C(=O)CC(C)(C)CC2=O)C(=O)C1,nt,6,-1.5,nt,nt,
CN(C)S(=O)(=O)c1cccc(NC(=O)COC(=O)/C=C/c2ccc([N+](=O)[O-])cc2)c1,2,-7,0.8,nt,0%,
COc1ccccc1-n1cc(CN2CCN(C3CCCCC3)C(CCO)C2)cn1 (stereo not drawn),2,63,-0.1,nt,2%,
COc1ccc(N2CCN(C(=O)CC3NC4CCCCC4NC3=O)CC2)cc1 (stereo not drawn),-2,-4,-3.9,-20,-11%,
Cc1ccc(S(=O)(=O)CCC(=O)OCC(=O)Nc2cc(F)ccc2C)cc1,nt,-5,-3.7,nt,nt,
O=C(CCN1CCOCC1)N/N=C/c1cc([N+](=O)[O-])ccc1OC(F)F,-6,1,-1.1,nt,2%,
CCC(c1nnnn1CCOC)N1CCN(C(=O)c2ccco2)CC1 (stereo not drawn),13,2,0.0,-2,-7%,
COc1ccc(C)cc1NC(=O)c1ccc([N+](=O)[O-])cc1[N+](=O)[O-],-1,5,-4.7,nt,-1%,
Cc1cc(OCC(=O)NNC(=O)c2cccnc2)cc(C)c1Cl,nt,-1,-1.9,nt,nt,
Cc1ccc(-n2ncc3c(N4CCCC4)ncnc32)c(C)c1,0,-2,0.4,-45,-6%,
CCSc1nnc(NC(=O)C(CC)Oc2ccccc2)s1 (stereo not drawn),7,-6,4.0,-55,-5%,
O=C(CSc1ccccc1)Nc1ccc2c(c1)OCO2,nt,35,2.6,nt,nt,
CCN1CCN(c2nc3c(c(=O)[nH]2)CCCC3)CC1,0,0,0.4,-32,-6%,
O=[N+]([O-])C(=C1Nc2ccccc2N1)/C(Cl)=C(/Cl)Br,-4,5,3.2,-25,-2%,
Cc1ccc2nc(C)cc(Cl)c2c1,9,-7,0.8,nt,4%,

# (next part)
SMILES,Arbovirus anti,Mtb bLac sens,RecA intein inh,YopH inh,Mtb H37Rv,others
CCOC(=O)c1cc2c(nc1N)CC(C)(CC)OC2 (stereo not drawn),-2,8,1.6,-3,-4%,
CCCOc1ccc(NC(=O)Cc2ccc(S(=O)(=O)N3CCOCC3)s2)cc1OCCC,nt,-6,-1.5,nt,nt,
Cc1ccc2[nH]c(C(=O)O)c(NC(=O)CN3CCN(c4cccc(C)c4C)CC3)c2c1,4,68,3.9,-44,1%,
COC(=O)CCCNC(=O)CN1CC(c2ccccc2)CC1=O (stereo not drawn),-2,-6,3.2,-35,5%,
Cn1cc(C(=O)NCc2ccccc2F)cn1,4,9,-2.7,-33,-1%,
CCc1nccn1S(=O)(=O)c1ccc(Br)cc1Br,6,-5,2.6,14,4%,
CCC(=O)Nc1sc2c(c1C#N)CC(C)(C)NC2(C)C,-3,-4,3.0,0,-6%,Arbovirus anti repeat=2
CCOCCCn1c(=S)[nH]c2cc3c(cc2c1=O)OCO3,7,1,-1.8,-35,nt,
COCCn1c(SCCN2CCCCC2)nc2ccccc2c1=O,5,0,-1.8,-28,6%,
C=CCn1c(C#N)c(N)sc1=N,-2,-15,7.6,-37,-11%,
Cc1ccc(S(=O)(=O)n2ccc3cccnc32)cc1,8,5,1.9,-25,-4%,
O=S(=O)(c1ccc(Br)cc1)N1CCC2(CC1)OCCO2,nt,-1,1.4,nt,nt,
Cn1c([N+](=O)[O-])cnc1COC(N)=O,2,6,-2.1,-32,8%,
OCc1cc(C(O)CNCCCCCCOCCCCc2ccccc2)ccc1O (stereo not drawn),-22,6&9,0.7&3.8,nt,2%&4%,
Cc1nccn1CC(=O)N/N=C/c1ccc(O)c(O)c1,-5,2,-5.1,-25,4%,
CCc1ccc2nc(N(CCCN(C)C)C(=O)c3ccc(S(=O)(=O)N4CCCC4)cc3)sc2c1,nt,7,0.7,nt,nt,
CN(C)S(=O)(=O)c1ccc(Cl)c(NC(=O)COC(=O)/C=C/c2ccco2)c1,8,-8,0.1,nt,3%,
CCc1ccc(N(CC(=O)O)S(=O)(=O)c2c(C)noc2C)cc1,2,-14,0.8,-26,10%,
CCO[C@@H]1OC(C(=O)NCc2ccccc2)=C[C@H](c2csc3ccccc23)[C@H]1CCCO,-20,89,4.7,nt,nt,
Cc1nc2c(-c3ccc(F)cc3)c(C)nn2c(C)c1CCC(=O)N1CCN(c2ccc(F)cc2)CC1,-20,-5,5.2,-46,40%,
CC(=O)C1=C(C)NC(=O)NC1c1ccc2c(c1)OCO2 (stereo not drawn),nt,-2,-0.3,nt,nt,
COc1ccccc1C(=O)NC(=O)COC(=O)c1cccc(NC(C)=O)c1,nt,-14,0.5,nt,nt,
O=C1NC[C@H](Cc2ccc(O)cc2)N(CCc2cccc3ccccc23)C1=O,nt,-2,0.3,nt,-2%,
O=S(=O)(c1ccc(Cl)cc1)N1CCN(Cc2cccnc2)CC1,nt,-8,2.9,nt,nt,

# These rows are one share of the data; the hit share may differ from the screen's.
